# Screening results deposited in PubChem BioAssay by several laboratories.
# YopH PTP inh: YopH tyrosine phosphatase inhibitors, primary screen, biochemical, fluorescence Ex485/Em525; YopH tyrosine phosphatase [Yersinia enterocolitica]; inhibition, %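 (about 10 µM by stock and volumes)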; 0.16% of 140,000 active;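 active = inhibition of 50% or more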;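 note: controls were vehicle for no effect and minimum signal wells for full effect; inactives centre near -20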
# Mtb bLac sens: beta-lactam sensitization of Mtb H37Rv, H37Rv; M. tuberculosis H37Rv growth with meropenem, percent inhibition; hits of this screen are not shown here; inhibition, % at 25 µM; 0.27% of 330,000 active;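 active = about 74% or more and at least 40 points above the plate without the antibiotic, then above 30% in a dose series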;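 note: growth measured after seven days incubation then overnight dye step; 0% = bacteria only wells and 100% = bacteria with antibiotic; twin plates without the antibiotic show which effects depend on it; some results filed as inactive read as strong as hits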
# Mtb H37Rv: M. tuberculosis H37Rv growth inhibitors, H37Rv strain (AID 1626); M. tuberculosis H37Rv growth inhibition; higher % means a stronger effect; inhibition, % at 10 µM; hits with a dose series show IC50 in µM; 0.95% of 220,000 active;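 active = confirmed in a dose series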;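 note: bacteria incubated seven days before Alamar blue readout; 0% = bacteria only wells and 100% = bacteria with antibiotic wells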
# Arbovirus inh: antivirals against arbovirus infection, primary screen, cell-based, full library, 10K replicate subset. arbovirus infection cell-based antiviral screen. inhibition, % at 10 µM. 0.37% of 200,000 active. AID 1251, 2008;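 active = inhibition from about 30%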;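 note: bluetongue infection of BSR cells; cell survival read as ATP light after 72 h; 0% = infected wells without compound and 100% = uninfected wells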
# RecA splice inh: Mtb RecA intein splicing inhibitors, primary screen, biochemical, fluorescence, HTS; Protein RecA (Mycobacterium tuberculosis (strain ATCC 25618 / H37Rv)), P9WHJ3; inhibition, %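 (about 9 µM by stock and volumes)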; 0.75% of 290,000 active; cell-free RecA intein splicing; in the data active = inhibition above about 30%;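 note: 0% = vehicle wells and 100% = reference inhibitor control wells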
# Target sequence (P9WHJ3 whole entry, looked up, canonical isoform): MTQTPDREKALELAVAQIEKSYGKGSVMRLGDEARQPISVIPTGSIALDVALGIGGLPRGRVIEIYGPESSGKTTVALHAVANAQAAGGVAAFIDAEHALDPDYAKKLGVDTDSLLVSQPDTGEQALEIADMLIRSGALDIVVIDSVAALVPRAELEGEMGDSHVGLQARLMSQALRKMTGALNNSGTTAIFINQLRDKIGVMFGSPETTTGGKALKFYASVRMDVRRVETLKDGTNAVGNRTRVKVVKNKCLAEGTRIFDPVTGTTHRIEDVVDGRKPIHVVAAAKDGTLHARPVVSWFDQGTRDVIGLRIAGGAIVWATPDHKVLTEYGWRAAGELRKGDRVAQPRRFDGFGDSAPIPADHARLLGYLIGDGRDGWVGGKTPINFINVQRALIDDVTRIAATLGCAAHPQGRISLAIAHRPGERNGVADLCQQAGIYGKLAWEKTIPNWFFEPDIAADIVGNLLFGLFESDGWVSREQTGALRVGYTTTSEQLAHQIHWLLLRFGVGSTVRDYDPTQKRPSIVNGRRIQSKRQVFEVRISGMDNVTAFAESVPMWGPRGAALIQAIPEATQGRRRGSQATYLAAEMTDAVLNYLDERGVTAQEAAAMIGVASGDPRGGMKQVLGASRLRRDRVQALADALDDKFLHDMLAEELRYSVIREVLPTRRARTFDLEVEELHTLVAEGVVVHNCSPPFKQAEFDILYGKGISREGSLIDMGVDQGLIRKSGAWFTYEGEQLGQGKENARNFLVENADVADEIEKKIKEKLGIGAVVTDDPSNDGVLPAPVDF
# Arbovirus inh repeat: further read-out of Arbovirus inh, marked with its call; inhibition, %; measured here: 10K subset replicate screen; many hits read low in the repeat;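 first of two repeat runs on a subset; 0% = infected and 100% = uninfected wells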
# * = called active by the depositor; · = no result given.
SMILES,YopH PTP inh,Mtb bLac sens,Mtb H37Rv,Arbovirus inh,RecA splice inh,others
CCCCN(CCCNC(=O)C1CCCN(S(=O)(=O)CCC)C1)Cc1ccccc1 (stereo not given),·,-4.5,·,·,-0.7,
Cc1cccc(C)c1NC(=O)N1CCC(c2nc3ccccc3o2)CC1,-32.7,-9.7,4.7%,-7.3,0.7,
COc1ccc(Oc2nc(C)cc(C)c2S(=O)(=O)c2ccc(C)cc2)cc1,-47.9,-4.9,·,-7.6,-1.9,
CCc1ccc(OCCOCC(O)CN2CCN(Cc3ccc(Cl)cc3)CC2)cc1 (stereo not given),-23.9,14.4,14.3%,-30.1,2.8,
COc1ccc(CN(C(=O)CN2C(=O)c3ccccc3S2(=O)=O)C(C(=O)NCC2CCCO2)c2ccncc2)cc1 (stereo not given),-29.3,-1.3,·,0.5,-3.6,
CCOc1ccc(C2C(C#N)=C(N)SC(N)=C2C#N)cc1OC,-31.5,2.0,-1.4%,2.6,-4.4,
CCCC(=O)n1nc(-c2cccnc2)nc1NCc1ccccc1,·,·,-7.6%,-1.6,·,
C=CCC1(CN2CCCC2=O)C(=O)NC(=O)NC1=O,-95.9,1.3,-9.9%,5.1,0.4,
Cc1ccc(NC(=O)C[n+]2ccccc2)cc1[N+](=O)[O-],-33.1,19.5,-4.0%,-1.9,1.0,
O=C(COc1ccc2ccc(=O)oc2c1)Nc1ccc(N2CCOCC2)cc1,-31.9,3.1,-3.3%,1.2,-4.5,
COc1ccc(/C=C2\SC(=S)N(C(C(=O)O)c3ccccc3)C2=O)c(OC)c1 (stereo not given),·,0.5,4.7%,·,-1.0,
CN1CCc2c(sc(NC(=O)Cc3ccccc3)c2C#N)C1,·,-8.3,·,·,-12.5,
Cc1cc(C(=O)COC(=O)Cc2n[nH]c(=O)c3ccccc23)c(C)n1-c1ccc2c(c1)OCCO2,-11.6,73.6,11.5%,7.8,3.8,
COc1ccc(C(C)NC(=O)Cc2cccs2)cc1 (stereo not given),·,-5.9,·,·,0.2,
O=S(=O)(c1ccc(Oc2ccc3oc4ccccc4c3c2)nc1)N1CCCC1,-27.2,96.6,1.7%,3.0,0.5,
Cc1ccc(NC(=O)C(C)c2ccc(-c3ccccc3)c(F)c2)cc1 (stereo not given),-18.2,-7.1,0.7%,-5.6,0.5,
Cc1ccc(Nc2ccc(C(=O)N3CCCC3)cn2)c(C)c1,0.6,-6.7,9.0%,7.6,2.2,
Cc1cc2nc(N)sc2cc1C,-2.4,-2.1,4.1%,2.5,-0.7,
Cc1cccc(C(=O)Nc2ccccc2C(=O)NCc2ccco2)c1,·,-10.6,·,·,0.5,
Cc1ccccc1/C(N)=N/O,-24.6,3.0,-0.5%,7.1,-1.9,
Cc1ccc(C)c(NC(=O)CSc2nnc(NC(=O)C3CC3)s2)c1,·,-3.7,·,·,-4.9,
CC1=N/C(=C\c2ccc3c(c2)OCO3)C(=O)N1c1ccc(C(=O)O)cc1,-28.5,58.8,5.0%,5.9,3.1,
COc1ccc(N=CC=C2OC(C)(C)C(C)(C)O2)cc1OC,·,-3.9,1.4%,·,-0.8,
S=c1nc(Cc2ccccc2)[nH]c2ccccc12,·,-1.1,·,·,-1.0,
CCOC(=O)N1CCN(c2c(NCCc3ccc(OC)c(OC)c3)c(=O)c2=O)CC1,-26.2,-12.6,-6.2%,5.2,1.9,

# 7 entries picked at random from those above:
SMILES,YopH PTP inh,Mtb bLac sens,Mtb H37Rv,Arbovirus inh,RecA splice inh,others
COc1ccc(Oc2nc(C)cc(C)c2S(=O)(=O)c2ccc(C)cc2)cc1,-47.9,-4.9,·,-7.6,-1.9,
Cc1ccc(NC(=O)C(C)c2ccc(-c3ccccc3)c(F)c2)cc1 (stereo not given),-18.2,-7.1,0.7%,-5.6,0.5,
CCOC(=O)N1CCN(c2c(NCCc3ccc(OC)c(OC)c3)c(=O)c2=O)CC1,-26.2,-12.6,-6.2%,5.2,1.9,
CCCCN(CCCNC(=O)C1CCCN(S(=O)(=O)CCC)C1)Cc1ccccc1 (stereo not given),·,-4.5,·,·,-0.7,
Cc1ccc(NC(=O)C[n+]2ccccc2)cc1[N+](=O)[O-],-33.1,19.5,-4.0%,-1.9,1.0,
O=S(=O)(c1ccc(Oc2ccc3oc4ccccc4c3c2)nc1)N1CCCC1,-27.2,96.6,1.7%,3.0,0.5,
Cc1cccc(C(=O)Nc2ccccc2C(=O)NCc2ccco2)c1,·,-10.6,·,·,0.5,

# The main list resumes with the 4 entries that preceded the break.
SMILES,YopH PTP inh,Mtb bLac sens,Mtb H37Rv,Arbovirus inh,RecA splice inh,others
CC1=N/C(=C\c2ccc3c(c2)OCO3)C(=O)N1c1ccc(C(=O)O)cc1,-28.5,58.8,5.0%,5.9,3.1,
COc1ccc(N=CC=C2OC(C)(C)C(C)(C)O2)cc1OC,·,-3.9,1.4%,·,-0.8,
S=c1nc(Cc2ccccc2)[nH]c2ccccc12,·,-1.1,·,·,-1.0,
CCOC(=O)N1CCN(c2c(NCCc3ccc(OC)c(OC)c3)c(=O)c2=O)CC1,-26.2,-12.6,-6.2%,5.2,1.9,
Cc1nc2ccc3nc(NC(=O)c4ccco4)sc3c2s1,-18.7,1.3,-6.5%,·,0.4,
CN1CCN(C2=C(Cl)C(=O)N(c3ccc(Cl)cc3)C2=O)CC1,-26.2,48.7,-0.1%,-1.7,33.4*,
COc1ccc(N2C(=O)[C@@H]3[C@H](C2=O)[C@H]2C=CC=NN2[C@@H]3C(=O)Nc2ccc(Cl)cc2)cc1,·,-11.9,-7.9%,·,-1.1,
NCC(=O)N1CCC(C(=O)N[C@@H](Cc2c[nH]c3ccccc23)C(=O)O)CC1,·,-1.3,·,·,-2.7,
Cc1cc2c(NC(=O)Nc3ccc(C(F)(F)F)cc3)cccc2nn1,·,-14.8,·,·,1.0,
Cc1cc2c(c(=O)o1)C(C(C)C)C(C#N)=C(N)O2 (stereo not given),-28.2,-1.8,-10.8%,3.8,·,
Cc1nnc(NC(=O)CCC(=O)NCc2ccco2)s1,-44.5,0.2,3.3%,3.9,-0.3,
Cc1nc(SCC(=O)N2CCc3ccccc3C2)c2c(C)c(C)sc2n1,-41.6,2.5,-2.1%,-8.4,8.7,
Cc1cc(SCC2=NNC(=O)C2)c(Cl)cc1Cl,·,-4.0,-5.2%,·,·,
CCC1CCCCN1CCNC(=O)C1CCN(S(=O)(=O)c2c(C)noc2C)CC1 (stereo not given),-11.0,-5.8,-11.0%,-5.2,-0.9,
COc1ccc(C(=O)Nc2c(N)nc(SCC(=O)Nc3ccc(NC(C)=O)cc3)[nH]c2=O)cc1OC,·,-11.6,·,·,-1.5,
Cc1cccc(/C(N)=N/OC(=O)c2cccc3ccccc23)c1,·,27.9,·,·,3.0,
Fc1ccccc1NC(=S)N1CCN(Cc2ccc3c(c2)OCO3)CC1,·,-2.0,9.3%,-1.6,1.0,
COc1ccc(Cl)cc1NC(=O)CN(C)C(=O)C12CC3CC(CC(Cl)(C3)C1)C2,·,8.0,·,·,6.5,
C/C(=N\NC(=O)c1nnn(-c2nonc2N)c1C(C)C)c1ccc2ccccc2c1,·,5.9,·,·,13.8,
Cc1ccc(P(=O)(CO)c2ccc(C)cc2)cc1,-3.2,-5.5,-1.8%,6.4,·,
O=C1CSC(=S)N1N1C(=O)c2cccc([N+](=O)[O-])c2C1=O,·,6.2,3.6%,2.7,-5.3,
O=C(COc1ncnc2ccccc12)NCC1CCCO1 (stereo not given),·,17.3,5.0%,0.2,1.1,
CC(=O)Nc1ccc(S(=O)(=O)NC2CC(=O)N(c3cccc(F)c3)C2)cc1 (stereo not given),·,-5.7,·,·,-1.2,
CCC(C(=O)Nc1nccs1)(C(F)(F)F)C(F)(F)F,-18.9,1.7,-3.6%,-3.6,1.7,
COC(=O)c1cc(OC)nc2c1c(=O)n(C)c(=O)n2C,-18.5,-6.4,-5.8%,4.4,-0.1,
Cc1nc(C)n(CC(O)COc2ccc3cc(Br)ccc3c2)n1 (stereo not given),-0.2,-2.0,1.0%,11.4,-1.9,
O=C(Nc1ccc2ccccc2n1)c1ccc(Cl)cc1,·,8.0,·,·,-0.3,
COc1cc(C(=O)N2CCCc3ccccc32)c([N+](=O)[O-])cc1OC,·,-1.1,·,·,-4.3,
COc1ccc(C(=O)OCC(=O)Nc2cc(C)on2)cc1S(=O)(=O)N1CCOCC1,-4.2,-8.2,7.8%,1.8,2.5,

# Gathered by group: the entries above containing a furan ring, fused or not
SMILES,YopH PTP inh,Mtb bLac sens,Mtb H37Rv,Arbovirus inh,RecA splice inh,others
O=S(=O)(c1ccc(Oc2ccc3oc4ccccc4c3c2)nc1)N1CCCC1,-27.2,96.6,1.7%,3.0,0.5,
Cc1cccc(C(=O)Nc2ccccc2C(=O)NCc2ccco2)c1,·,-10.6,·,·,0.5,
Cc1nc2ccc3nc(NC(=O)c4ccco4)sc3c2s1,-18.7,1.3,-6.5%,·,0.4,
Cc1nnc(NC(=O)CCC(=O)NCc2ccco2)s1,-44.5,0.2,3.3%,3.9,-0.3,

# Other records follow.
SMILES,YopH PTP inh,Mtb bLac sens,Mtb H37Rv,Arbovirus inh,RecA splice inh,others
COc1ccc(C(C(=O)NCC2CCCO2)N(Cc2ccccc2)C(=O)c2snc(C(N)=O)c2N)cc1OC (stereo not given),·,4.2,·,·,-2.2,
COCCn1c(SCC(=O)Nc2ccccc2)nc2c1c(=O)[nH]c(=O)n2C,-40.7,-0.7,-6.9%,6.1,-2.0,Arbovirus inh repeat=8.8
O=C(CS(=O)(=O)c1cn(Cc2ccc(Cl)cc2)c2ccccc12)N1CCOCC1,-18.3,-3.5,-1.2%,13.1,3.1,
O=C1/C(=C/c2cccs2)SC(=S)N1NS(=O)(=O)c1ccccc1,·,15.1,-9.7%,·,15.0,
O=C(Nc1ccon1)c1cccc(S(=O)(=O)N2CCCC2)c1,5.9,-8.1,4.2%,-0.3,-0.3,
Cn1nccc1C(=O)NC1CC(C)(C)Cc2c1cnn2-c1ccc(F)cc1 (stereo not given),·,3.9,·,·,0.8,
O=C(c1cccs1)N1CCCC(c2ccccc2)C1 (stereo not given),-2.8,64.3,-4.1%,2.6,2.7,
O=C(O)CC(NC(=O)c1ccccc1NC(=O)c1ccccc1)C(=O)O (stereo not given),-6.7,-2.4,-6.8%,14.9,-4.8,Arbovirus inh repeat=-1.5
CC(=O)Nc1ccc(C(=O)Cn2c3[n+](c4c(F)c(F)ccc42)CCCCC3)cc1,·,-3.4,-0.5%,3.2,2.0,
C=CCSc1nnc(-c2cc3c(C(F)(F)F)nn(C)c3s2)n1C,-38.8,3.4,-13.6%,5.0,-0.6,
Cc1nn(C)cc1C(=O)c1ccccc1,·,2.5,·,·,-1.9,
CC(=O)Nc1cc(C(=O)N(C)Cc2ccco2)ccc1Sc1ccc(C)cc1,-25.5,-8.4,1.2%,11.7,2.6,
CC(=O)c1cccc(NC(=S)NC(=O)c2ccccc2)c1,-23.2,4.8,2.8%,-3.0,-1.3,
Cc1ccc(C)c(OCC(=O)NCCNC(=O)COc2cc(C)ccc2C)c1,2.7,-1.9,3.1%,3.6,2.2,
NC(=O)CSc1oc(-c2ccc(F)cc2)nc1S(=O)(=O)c1ccccc1,-55.4,5.9,-5.2%,-3.7,·,Arbovirus inh repeat=-4.8
COC(=O)c1sccc1S(=O)(=O)Nc1ccc(C)cc1,·,-4.6,-2.9%,·,·,
O=C1OCc2cccc([N+](=O)[O-])c21,-26.2,7.0,-2.6%,0.3,-14.0,
OCCOCCNc1ncnc2sc(-c3ccccc3)cc12,4.1,15.4,3.3%,1.0,-0.1,
COc1ccc(N2C(=O)C3C(c4ccc(C(=O)O)cc4)NC(Cc4ccccc4)(C(=O)O)C3C2=O)c([N+](=O)[O-])c1 (stereo not given),·,-9.2,-8.8%,1.2,-2.9,
CSc1nsc(/C=C/Nc2cccc(Cl)c2)c1C#N,-9.2,-1.6,-2.5%,11.7,·,
CCOC(=O)N1CCN(S(=O)(=O)c2cc(C)c(C)cc2C)CC1,25.2,-4.2,0.7%,11.7,1.4,
COCCCN1C(=O)C(=O)/C(=C(/O)c2ccc(OC(C)C)cc2)C1c1ccncc1 (stereo not given),-36.0,-5.8,-1.3%,7.1,0.4,

# This is a subset. The share of hits here may be higher or lower than overall.
